Assay outcomes from PubChem.
HCMV UL50-53 inh: disrupts HCMV UL50-UL53 complex binding | HTRF UL50-UL53 interaction, normalized percent inhibition | inhibition, % (no concentration beside the values) | actives 0.15% (n = 190,000) | AID 1918969;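 active means both replicates at 50% or more, plus weaker picks with an unusually low signal ratio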;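 further: stock transfer was 100 nL into about 20 µL; 0% = negative control wells and 100% = wells with untagged competitor protein; inactives centre near -12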
Sa growth 42C: inhibitors of Staphylococcus aureus growth at 42 °C. S. aureus RN4220 growth, OD600, 20 h; hits give low values. relative growth, % (concentration not given with the values). actives 0.53% (n = 170,000). AID 720641;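 active means growth at 42 °C up to 50% and 20 or more points under that at 30 °C, or under 10% at both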;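 further: 300 nL library stock went into each well; scaled to the means of positive and negative controls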
GIV-Gai inh: blocks GIV peptide binding to rat Galpha-i3. P08753. Galpha-i3/FITC-GIV peptide fluorescence polarization, 90 min; hits give low values; scaled: aluminum fluoride 0%, vehicle 100%. percent of control (FP), % (concentration not given with the values). actives 0.42% (n = 210,000);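 active means replicate mean at 85% of control or lower, very high polarization wells dropped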;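 further: wells of about 15 µL received 100 nL stock; the first replicate is given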
Target sequence (P08753 whole entry, looked up): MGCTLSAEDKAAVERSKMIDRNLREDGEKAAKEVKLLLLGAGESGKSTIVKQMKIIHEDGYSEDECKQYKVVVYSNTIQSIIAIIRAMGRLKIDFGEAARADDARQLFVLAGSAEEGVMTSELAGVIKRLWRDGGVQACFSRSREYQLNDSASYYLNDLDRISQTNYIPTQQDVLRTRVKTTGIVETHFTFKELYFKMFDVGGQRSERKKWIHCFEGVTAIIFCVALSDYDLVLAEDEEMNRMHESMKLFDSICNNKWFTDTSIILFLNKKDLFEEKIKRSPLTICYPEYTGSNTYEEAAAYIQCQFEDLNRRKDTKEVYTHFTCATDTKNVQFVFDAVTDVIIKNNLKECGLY
Sa growth 42C second temp: also measured in Sa growth 42C; calls as there; relative growth, %; measured here: growth at 30 °C;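 optical density after 20 h as mean of two plates; 100% = untreated growth and lower means inhibition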
Starred values were filed as active, the others as inactive; x = not tested or not shown.

SMILES	HCMV UL50-53 inh	Sa growth 42C	Sa growth 42C second temp	GIV-Gai inh
Cc1onc(-c2ccccc2)c1C(=O)Nc1ccc(N2CCOCC2)cc1	x	96	83	102
CC(OC(=O)c1cn(Cc2ccccc2)nc1-c1cccs1)C(N)=O (stereo not drawn)	-7	89	99	x
CCOC(=O)Nc1ccc2c(CSc3ncccn3)cc(=O)oc2c1	-35	84	92	x
CN1C(=O)c2ccccc2C(C(=O)NCCCN2CCCCC2)C1c1cccs1 (stereo not drawn)	x	98	98	103
COc1cc(C2CC(=O)C3=C(C2)Nc2onc(C)c2C3c2ccc(OC)c(OC)c2)ccc1O (stereo not drawn)	-12	x	x	109
CN(C)S(=O)(=O)Nc1ccc(C(=O)O)cc1	2	100	99	x
Cc1nc(CC(=O)NN=C2C3CC4CC(C3)CC2C4)cs1	-18	92	81	x
O=C1CCCN1CCCNc1ncnc2sccc12	-11	126	87	x
C=CCSc1nnc2c(n1)OC(c1cccnc1)Nc1ccccc1-2 (stereo not drawn)	-29	105	96	107
O=c1[nH]c2cc3c(cc2c(=O)n1CCCc1nc(-c2cccc(Cl)c2)no1)OCO3	-6	x	x	105
Nc1nc2nc(-c3ccccc3)cc(=O)n2[nH]1	-15	88	90	103
c1ccc(C2=Nc3ccccc3C(c3ccncc3)=NN2)cc1	x	92	92	98
O=C(NCCc1ccccc1)c1cnn(-c2ccc(F)cc2)c1-n1cccc1	x	108	112	101
Cc1ccc(C=Nc2ccc(C(N)=O)cc2)o1	-15	113	48	177
O=C(NCC1CCCCC1)C1CCN(c2cnccn2)CC1	-18	81	80	100
Cc1ccc(-c2nn(CCC(=O)NCCN3CCOCC3)c(=O)c3ccccc23)cc1	-16	107	92	104
Cn1c(N)c(C(=O)COC(=O)C2=NNC(=O)CC2)c(=O)n(C)c1=O	-33	88	94	x
CCOC(=O)c1cnn(CCOC(=O)C2CCCCC2)c1NC(=O)C1CCCCC1	-4	x	x	101
O=S(=O)(NCCc1ccccn1)c1ccc(-c2ccon2)s1	-23	102	93	112
CNC(=O)Cn1nc(-c2ccc(Cl)cc2)c2ccccc2c1=O	-12	94	92	103
Cc1c(C(=O)O)sc2ncnc(N3CCOCC3)c12	-21	x	x	108
N#CC1=CS/C(=C2\C(=O)NN(c3ccccc3)C2=O)SC1=N	-19	105	92	x
CC1(C)Cc2c(C#N)c3nc(-c4ccccc4)cnn3c2CO1	-54	48	34	x
c1ccc(-c2csc3ncnc(NC4CCCC4)c23)cc1	-24	x	x	107
Cc1cc(NC2c3ncccc3C(=O)N2C2CCCCC2)ccc1Br (stereo not drawn)	x	100	73	100
COc1ccc2cc3c(N)c(C(=O)Nc4ncc(C)s4)sc3nc2c1	-28	123	44	88
CNc1nc(C23CC4CC(CC(C4)C2)C3)ns1	-4	116	102	104
Cc1[nH]c2ccc(C(=O)OCc3nnc(-c4ccccc4)o3)cc2c1C	3	85	80	x
Nc1nccc(-c2csc(COc3ccc(Cl)cc3)n2)n1	3	106	108	107
OCc1nnn(-c2ccccc2)c1CO	1	89	86	99

Rewritten bar-delimited: entries from further up
smiles | HCMV UL50-53 inh | Sa growth 42C | Sa growth 42C second temp | GIV-Gai inh
COc1ccc2cc3c(N)c(C(=O)Nc4ncc(C)s4)sc3nc2c1 | -28 | 123 | 44 | 88
CNc1nc(C23CC4CC(CC(C4)C2)C3)ns1 | -4 | 116 | 102 | 104
Cc1[nH]c2ccc(C(=O)OCc3nnc(-c4ccccc4)o3)cc2c1C | 3 | 85 | 80 | x
Nc1nccc(-c2csc(COc3ccc(Cl)cc3)n2)n1 | 3 | 106 | 108 | 107
OCc1nnn(-c2ccccc2)c1CO | 1 | 89 | 86 | 99

Next structures follow:
SMILES	HCMV UL50-53 inh	Sa growth 42C	Sa growth 42C second temp	GIV-Gai inh
C=CCNC(=O)CN1CCN(c2ccccc2)CC1	0	107	96	103
Cc1ccc(C(=O)C(C)S(=O)(=O)c2ccc(Cl)cc2)cc1Cl (stereo not drawn)	-1	98	88	99
CSc1cccc(N2C(=O)SC(c3ccccc3)C2=O)c1 (stereo not drawn)	-5	107	95	101
CC(C)NC(=O)CN1CCN(c2ccc(C(=O)O)cc2NC(=O)c2ccccc2Cl)CC1	-21	x	x	92
Cc1cccc2cc3c(nc12)N(S(=O)(=O)c1ccc(OC2CCCC2)cc1)CC3	-24	x	x	101
Cc1ccc2nc(SCC(=O)Nc3ccc(C#N)cc3)[nH]c2c1	-38	98	91	104
CCOC(=O)C1CCN(c2c(S(=O)(=O)c3ccccc3)cnc3ccc(F)cc23)CC1	-14	100	83	105
Cc1ccc(Nc2c(-c3c[nH]c4ccccc34)nc3cc(C)ccn23)cc1	-4	117	25	119
NC(=O)Cn1nc(C(F)(F)F)c2c1CCCC2	-14	97	87	x
CC(=O)Nc1ccc(-c2cn3cccnc3n2)cc1	-19	89	91	104
Cc1nc2n(n1)C(C(=O)Nc1cccc(Cl)c1)CC(=O)N2 (stereo not drawn)	1	x	x	97
CCN(CC)C(=O)c1sc2c(c1C)c(=O)n(-c1ccc(C)c(C)c1)c(=O)n2Cc1cccc(Cl)c1	x	98	95	97
CCOc1ccc(C(=O)Nc2ccc3nc(SCC(=O)N4CCc5ccccc54)sc3c2)cc1	-10	100	88	98
O=C(NCc1ccncc1)c1ccc2c(c1)CCN2S(=O)(=O)c1ccccc1	2	x	x	103
CC1CCCCN1C(=O)C12CCC(C)(C(=O)C1)C2(C)C (stereo not drawn)	-6	98	88	104
Cc1ccc2ncc(C(=O)N3CCc4ccccc4C3)c(=O)n2c1	-30	87	85	95
C=CCSc1ncc(Cl)c(C(=O)Nc2sc3c(c2C(=O)NCC2CCCO2)CCC3)n1 (stereo not drawn)	6	x	x	117
CC(CN1CCCCC1)OC(=O)c1cccs1 (stereo not drawn)	-10	104	88	x
CCCCSC1=C(C#N)C(=O)NC(c2ccco2)S1 (stereo not drawn)	26	90	78	104
CCc1ccccc1NC(=O)N1CCN(C(=O)c2nsc3ccccc23)CC1	x	70	88	102
COc1ccc(NC(=O)C2CCCN(S(=O)(=O)c3cn(C)cn3)C2)cc1Cl (stereo not drawn)	x	91	86	102
Cc1cc(C)n(CCCNC(=O)CSc2nc(-c3ccccc3)c(-c3ccccc3)o2)n1	9	86	59	x
O=C(CSc1nc2ccccc2c(=O)n1CCc1ccccc1)NCCc1ccccc1	x	93	84	97
CCc1ccc2oc(C(=O)NCC(c3ccc(C(C)(C)C)cc3)N(C)C)cc(=O)c2c1 (stereo not drawn)	-41	x	x	105
Cc1oc(-c2cccc(Cl)c2)nc1CN1CCC(C(=O)NCc2ccc(F)cc2)CC1	-26	110	89	104
CCOc1cc(C2C(C(=O)OC)=C(C)NC3=C2C(=O)CC(c2ccc(OC)cc2)C3)ccc1OC(C)=O (stereo not drawn)	-9	x	x	102
COc1ccccc1C1CC(=O)NC2=C1C(=O)CCC2 (stereo not drawn)	-8	x	x	98
C#CCOC(=O)Nc1cnc(OC)c(C(F)(F)F)c1	-22	102	83	106
CCN(CC)S(=O)(=O)c1ccc2c(c1)nc(C(F)(F)F)n2CCC(=O)Nc1ccccc1C	-7	x	x	103
COc1ccc(OC)c(NC(=O)c2cc3c(=O)oc4ccccc4c3s2)c1	-18	103	91	107

Six entries from above, reformatted.
Order of results – HCMV UL50-53 inh	Sa growth 42C	Sa growth 42C second temp	GIV-Gai inh
- COc1ccc(NC(=O)C2CCCN(S(=O)(=O)c3cn(C)cn3)C2)cc1Cl (stereo not drawn)
    x	91	86	102
- O=C(CSc1nc2ccccc2c(=O)n1CCc1ccccc1)NCCc1ccccc1
    x	93	84	97
- Cc1oc(-c2cccc(Cl)c2)nc1CN1CCC(C(=O)NCc2ccc(F)cc2)CC1
    -26	110	89	104
- Cc1cc(C)n(CCCNC(=O)CSc2nc(-c3ccccc3)c(-c3ccccc3)o2)n1
    9	86	59	x
- CCOc1cc(C2C(C(=O)OC)=C(C)NC3=C2C(=O)CC(c2ccc(OC)cc2)C3)ccc1OC(C)=O (stereo not drawn)
    -9	x	x	102
- COc1ccc(OC)c(NC(=O)c2cc3c(=O)oc4ccccc4c3s2)c1
    -18	103	91	107

(continued)
SMILES	HCMV UL50-53 inh	Sa growth 42C	Sa growth 42C second temp	GIV-Gai inh
C=CCNC(=O)COc1cc(C)c(Cl)c(C)c1	-2	111	95	106
CSC1=NC2(CCN(C(=O)NC3CCCCC3)CC2)N=C1c1ccc(C(C)(C)C)cc1	x	91	84	105
COc1ccc(-c2nc3c(C#N)c[nH]n3c2NC2CCCC2)cc1	-15	105	90	103
COc1ccc(-n2c(C)nc3cc(C(=O)NC4CCCCCC4)ccc32)cc1	x	68	75	107
CCCCN(C)C(=O)C1CCC(CNS(=O)(=O)c2ccc(Cl)cc2)CC1 (stereo not drawn)	x	121	96	105
COCCn1nnnc1CN1CCC(NC(=O)Nc2cccc(OC)c2)CC1	-14	114	81	103
CCNc1ccc(P(=O)(CC)CC)cc1	-35	100	92	x
COc1ccc(CC(=O)N=c2sc3cc(Cl)ccc3n2C)cc1	16	124	99	x
Cc1nc2[nH]nc(C)n2c(=O)c1CC(=O)O	-22	x	x	108
O=C(O)c1cccc(N2C(=O)/C(=C\C=C\c3ccco3)SC2=S)c1	-11	72	51	74*

Some of these compounds in order of number of heavy atoms, descending.
SMILES	HCMV UL50-53 inh	Sa growth 42C	Sa growth 42C second temp	GIV-Gai inh
COc1ccc(-n2c(C)nc3cc(C(=O)NC4CCCCCC4)ccc32)cc1	x	68	75	107
CCCCN(C)C(=O)C1CCC(CNS(=O)(=O)c2ccc(Cl)cc2)CC1 (stereo not drawn)	x	121	96	105
C=CCNC(=O)COc1cc(C)c(Cl)c(C)c1	-2	111	95	106
Cc1nc2[nH]nc(C)n2c(=O)c1CC(=O)O	-22	x	x	108

More results follow.
SMILES	HCMV UL50-53 inh	Sa growth 42C	Sa growth 42C second temp	GIV-Gai inh
Cc1sc(-c2noc(C3CC3)n2)cc1S(=O)(=O)N1CC=C(c2ccccc2)CC1	-27	x	x	102
Cc1ccc2c(Cl)cc(Cl)c(OCC(=O)NCc3ccco3)c2n1	-36	-1.6*	-0.3*	x
Cc1ccc(C)c(Oc2coc3cc(OC(=O)c4ccco4)ccc3c2=O)c1	-12	76	64	107
CCOCCCn1c(=N)c(S(=O)(=O)c2ccccc2)cc2c(=O)n3cc(C)ccc3nc21	-77	112	93	103
CCOC(=O)c1ccc(Nc2nc(N)c3cc(OC)c(OC)cc3n2)cc1	0	100	94	106
CCOC(=O)C1=C(CC)Nc2ccccc2N=C1NC(=O)c1cccc(S(=O)(=O)N2CCCC2)c1	0	93	96	x
Cc1ccc(C(=O)NC(C)c2ccncc2)cc1 (stereo not drawn)	-22	110	94	105
CC(NC(=O)CSC1=NCCS1)c1ccccc1 (stereo not drawn)	-11	81	87	x
Nc1nc(SCC(=O)N2CCc3ccccc32)n[nH]1	-3	98	99	101
NC(=O)C(CNS(=O)(=O)c1ccc(Cl)cc1)Sc1ncccn1 (stereo not drawn)	4	102	100	110
O=C(CN1CCN(Cc2ccccc2)C(=O)C1=O)N1CCN(Cc2ccccc2)CC1	-19	x	x	100
FC(F)(F)c1nc(SCc2ccc(Cl)cc2Cl)n[nH]1	0	-0.8*	1.2*	97
N#Cc1ccccc1OCC(=O)OC1CCOC1=O (stereo not drawn)	-1	69	93	x
Cc1onc(-c2ccccc2Cl)c1C(=O)NC(=S)NCc1ccco1	x	126	80	100
Cc1cccc2sc(N(Cc3cccnc3)C(=O)C3CCCCC3)nc12	x	62	21	100
Fc1ccc(CN=Cc2cc3ccccc3nc2Cl)cc1	-45	82	49	x
Cc1nn2c3c(cnc2c1-c1ccccc1)C(=O)CC(C)(C)C3	2	103	88	x
CCN(C(=O)C1CCN(S(=O)(=O)c2c(C)[nH]c(C)c2C(=O)N2CCCCC2)CC1)c1ccccc1	-32	x	x	106
Cc1ccc(-n2c(C)cc(CC#N)c2C)cc1	-11	81	89	x
COc1ccc(C(=O)NCCn2cc(SCc3cccc(F)c3)c3ccccc32)cc1OC	-9	83	86	101
Cc1ccc2c(cnn2C(=O)CCCC(=O)NCc2ccccc2C)c1	-2	x	x	110
O=C(/C=C\c1cn(-c2ccccc2)nc1-c1cccs1)N1CCCCC1	-34	108	87	x
CCCCNC(=O)c1cnn2c(C)c(Cc3c(F)cccc3Cl)c(C)nc12	x	103	100	108
O=C1CS(=O)(=O)C2(C(=O)N(Cc3cccc(F)c3)c3ccccc32)N1c1ccccc1 (stereo not drawn)	x	104	90	106
Cc1ccc(-n2c(SCc3ccc(C#N)cc3)nc3ccccc32)cc1	-11	90	94	x
CC(OC(=O)CSc1nc2ccccc2o1)C(=O)Nc1ncc(Cl)cc1Cl (stereo not drawn)	-5	89	88	x
COc1ccc(C2=C(C)C(c3cccs3)c3ccccc3O2)cc1 (stereo not drawn)	1	101	93	x
Cc1cc2ncc(S(=O)(=O)c3ccc(Cl)cc3)c(C)n2n1	0	121	97	105
Cc1noc(C)c1COc1ccccc1C(=O)N1CCCc2ccccc21	-9	133	88	x
